Assay outcomes (PubChem)
Rango complex inh – qHTS Assay for Inhibitors of Rango (Ran-regulated importin-beta cargo) - Importin beta complex formation; Importin subunit beta-1 (Homo sapiens), Q14974; Rango CFP/YFP FRET sensor + importin beta, 45 min; Potency, µM (doses to about 92.2 µM), for inactives: at the top dose inhibition of complex formation; 340,000 compounds, 0.031% hits; active = rising FRET ratio curve, often small or poorly fitted; inconclusive = mostly compound fluorescence or quenching in the first reads; inactive = flat curves in all reads;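 also: potency is read from the fitted curve at half-maximal effect; 0% = DMSO wells and 100% = buffer wells lacking importin beta; nearly all actives have a fitted effect of over 15% in size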
Target sequence (Q14974 whole entry, looked up): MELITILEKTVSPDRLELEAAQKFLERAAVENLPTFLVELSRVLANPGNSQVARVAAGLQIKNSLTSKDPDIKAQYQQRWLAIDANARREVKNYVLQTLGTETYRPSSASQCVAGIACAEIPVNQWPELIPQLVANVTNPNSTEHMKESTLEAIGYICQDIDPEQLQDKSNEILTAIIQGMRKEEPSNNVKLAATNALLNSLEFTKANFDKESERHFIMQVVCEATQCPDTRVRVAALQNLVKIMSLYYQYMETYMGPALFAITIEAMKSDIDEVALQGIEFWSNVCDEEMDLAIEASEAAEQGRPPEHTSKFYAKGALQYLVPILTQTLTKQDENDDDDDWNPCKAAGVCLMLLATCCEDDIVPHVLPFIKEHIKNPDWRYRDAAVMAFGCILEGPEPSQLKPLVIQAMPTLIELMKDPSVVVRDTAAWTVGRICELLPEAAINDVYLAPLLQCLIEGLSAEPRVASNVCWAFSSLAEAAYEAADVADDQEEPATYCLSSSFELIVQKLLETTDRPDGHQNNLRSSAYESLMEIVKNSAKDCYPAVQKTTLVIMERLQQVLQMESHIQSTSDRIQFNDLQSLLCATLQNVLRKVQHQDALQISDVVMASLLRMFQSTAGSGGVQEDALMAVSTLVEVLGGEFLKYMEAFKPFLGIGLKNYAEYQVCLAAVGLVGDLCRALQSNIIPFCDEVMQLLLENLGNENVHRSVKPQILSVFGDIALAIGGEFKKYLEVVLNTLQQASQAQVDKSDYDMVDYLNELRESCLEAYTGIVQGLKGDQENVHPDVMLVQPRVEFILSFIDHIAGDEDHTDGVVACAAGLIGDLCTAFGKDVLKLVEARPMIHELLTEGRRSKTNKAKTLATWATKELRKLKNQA
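FRET biosensor Rango (snurportin 1 IBB between N-terminal EYFP and C-terminal Cerulean), 50 nM in PBS/1 mM DTT/0.02% Tween-20/0.1% BSA, preincubated 5 min RT with compound; 0.125 microM importin beta added, 45 min RT, CFP/YFP FRET ratio read.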
Rango release inh – qHTS Assay for Inhibitors of RanGTP induced Rango (Ran-regulated importin-beta cargo) - Importin beta complex dissociation; Biochemical FRET Rango-importin beta, RanGTP-induced dissociation; Potency, µM (top dose mostly 46.1 µM), for inactives: top-dose activity change, negative = inhibition; Snurportin-1 (Homo sapiens) + GTP-binding nuclear protein Ran (Homo sapiens) + Importin …; AID 540253, 2011; 340,000 compounds, 0.071% hits; active means falling FRET ratio curve, often poorly fitted, with flat reads before Ran was added; inconclusive means other falling curves, or compound fluorescence or quenching; inactive means flat or rising ratio curve;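 also: potency is read from the fitted curve at half-maximal effect; % of control where 0% means no effect; nearly all actives have a fitted effect of over 45% in size; -100% = wells without RanGTP and RCC1; the record marks most hits as doubtful in a second field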
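Compounds sat 5 min at room temperature with 0.1 uM Rango biosensor plus 0.25 uM importin beta, then FRET pre-read. RanGTP-RCC1 (0.6 uM Ran, 2mM GTP, 0.2 uM RCC1) added for 45 min, and the CFP/YFP post-read measured blocked complex dissociation.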
miR-21 FLuc – qHTS Assay for Modulators of miRNAs and/orActivators of miR-21 | Potency, µM (highest dose often 38.3 µM), inactives show at the top dose reporter change, positive = more light | HeLa miR-21 FLuc reporter, luciferase, 48 h | 340,000 tested, under 10 active; active = well fitted rising curve with a large enough effect; inconclusive = small, poorly fitted or top-dose-only effect; inactive = no such curve, though single readings can be large or run the other way;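 also: % of control where 0% means no effect; miR-21 action dims this reporter so a rising signal means less miR-21 action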
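HeLa miR-21-FLuc reporter line, endogenous miR-21; 2000 cells/well in DMEM/10% FBS; compound titration up to ~40uM final, 48 h, 37 degree Celsius; luciferase detection reagent, 15 min lysis, CCD luminescence.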
GLA inh pH 4.5 – qHTS Assay for Inhibitors of Human alpha-Galactosidase at pH 4.5; purified enzyme, 4-MU-alpha-Gal fluorescence, pH 4.5; activity change, negative = inhibition, % at 105 µM; AID 1467, 2008; 230,000 tested, under 10 active; Alpha-galactosidase A (Homo sapiens), P06280; inconclusive = small, poorly fitted or top-dose-only inhibition, or a rising curve; inactive = flat fitted curve, though single readings scatter; no compound was filed as active;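 also: 0% = full activity with enzyme and -100% = basal without enzyme; dose as in the result columns while the protocol names 77 µM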
Active calls of the source: *; ? = inconclusive; · = no result given; & = joins results of further samples; [ ] = remark or other dose. This is a subset (hit frequency here may not be typical).

SMILES	Rango complex inh	Rango release inh	miR-21 FLuc	GLA inh pH 4.5
O=C(CSc1nnc(CNC(=O)c2ccco2)o1)Nc1cccc(C(F)(F)F)c1	-3.2%	5%	0%	·
CN(CC(=O)Nc1ccc(N2CCOCC2)cc1)Cc1cc(=O)n2ccsc2n1	-0.6%	0%	-23%	8
Cc1cccc(N2CCN(C(=O)c3ccc(CNc4c(N5CCC(C)CC5)c(=O)c4=O)cc3)CC2)c1C	4.4%	2%	-1%	-3
O=C(CN(Cc1ccc(Cl)cc1)C(=O)CN1C(=O)COc2ccccc21)NC1CCCC1	2.7%	-6%	1%	·
COc1cc(/C=C/c2nc3ccc([N+](=O)[O-])cc3s2)ccc1OCC(=O)O	·	·	0%	2
CCOc1ccccc1N/C=C/C(=O)C(C)(C)C	-6.4%	17%	0%	7
COc1cccc(C(=O)NCc2ccco2)c1	-1.0%	7%	-13%	·
COc1ccc2nc(NC(=O)c3ccc(NS(=O)(=O)c4cccs4)cc3)sc2c1	?	-10%	-27%	-6
COc1ccc(C(CNC(=O)c2cccc(NS(=O)(=O)c3ccc(C)c(F)c3)c2)N2CCCC2)cc1 (stereo not drawn)	-1.1%	13%	·	·
CC1CCc2nn(CC(=O)NCc3ccc(F)cc3)cc2C1 (stereo not drawn)	0.0%	-9%	-2%	-4
CC(C)(C)C(=O)Nc1ccc(-c2nnc3n2CCCCC3)cc1	0.4%	15%	-7%	·
O=C(Nc1cccc(C(=O)N2CCCCC2)c1)C1CCCCC1	-3.0%	-6%	·	·
O=[N+]([O-])c1ccc(NN=Cc2ccc(O)cc2O)nc1	?	-26%	·	·
NC(=O)c1ccsc1NC(=O)COC(=O)Cc1c[nH]c2ccccc12	?	10%	·	·
COc1ccc(C2(C(=O)O)CCCC2)cc1	1.7%	-11%	0%	6
CC1CN(C(=O)c2ccccc2)OC(c2ccc3c(c2)OCO3)O1 (stereo not drawn)	-1.5%	12%	-8%	-13
CC1CC(C)CN(CCCNC(=O)C2CCCN(S(=O)(=O)N3CC(C)CC(C)C3)C2)C1 (stereo not drawn)	2.3%	11%	-4%	·
CCCCNC(=S)NNC(=O)c1ccc2c(c1)OCO2	?	-12%	-7%	-1
O=C(O)c1cc(NC(=O)c2cccc(N3C(=O)c4ccccc4C3=O)c2)cc(C(=O)O)c1	3.8%	0%	5%	·
O=C(CSc1ccccn1)NC1CCCC1	·	·	0%	3
CN(C)c1ccc(/C=N/NC(=O)CNC(=O)/C=C/c2ccco2)cc1	-0.7%	8%	-1%	·
Cc1cc(=O)[nH]c(N2CCc3ccccc3C2)n1	-1.6%	15%	-7%	1
CC(C)Cn1cnc2c1c(=O)n(CC(=O)NC(=O)NC(C)(C)C)c(=O)n2Cc1ccccc1	-1.3%	6%	-2%	·
Cc1ccnc(NS(=O)(=O)c2ccc(NC(=O)CN3C(=O)CCC3=O)cc2)n1	2.2%	2%	-2%	-19
Clc1cccc(N2CCN(Cc3nnc(-c4ccccc4)o3)CC2)c1	1.0%	15%	-1%	-16

Some of these compounds in order of formula weight, low to high.
SMILES	Rango complex inh	Rango release inh	miR-21 FLuc	GLA inh pH 4.5
NC(=O)c1ccsc1NC(=O)COC(=O)Cc1c[nH]c2ccccc12	?	10%	·	·
CN(CC(=O)Nc1ccc(N2CCOCC2)cc1)Cc1cc(=O)n2ccsc2n1	-0.6%	0%	-23%	8
O=C(CSc1nnc(CNC(=O)c2ccco2)o1)Nc1cccc(C(F)(F)F)c1	-3.2%	5%	0%	·

Next compounds follow:
SMILES	Rango complex inh	Rango release inh	miR-21 FLuc	GLA inh pH 4.5
Nc1c(Cl)cc(N=Nc2ccccc2)cc1Cl	-2.8%	-1%	·	·
CCOC(=O)C1(C)NC(c2ccco2)C2C(=O)N(c3ccccc3)C(=O)C21 (stereo not drawn)	?	1%	0%	4
CN(C)CCCNc1nc(N)c([N+](=O)[O-])c(NC2CCCCC2)n1	-0.2%	-6%	-8%	·
Cc1ccc(-c2nnc(CSc3nncn3N)o2)cc1	2.9%	13%	-10%	5
Cc1nc(Cl)sc1C(=O)Nc1cccc(Cl)c1	-0.1%	7%	-6%	·
COC(=O)c1scc(C)c1NC(=O)C(Cl)c1ccccc1 (stereo not drawn)	-2.0%	-10%	5%	12
O=C(CSc1nnc(-c2ccccc2NC(=O)c2ccccc2)o1)OC1CCCCC1	-4.0%	2%	·	·
CCOC(=O)c1cnn(-c2ccc(C)cc2)c1N	1.9%	11%	-52%	7
COc1ccc(-c2cc(C(=O)Nc3cc(OC)c(OC)c(OC)c3)no2)cc1OC	-2.9%	9%	-3%	5
Cc1cc(F)ccc1S(=O)(=O)N1CCC2(CC1)OCCN2S(=O)(=O)c1cccs1	-3.2%	3%	·	·
CCCn1c(N)c(C(=O)CSc2nnc(C)n2Cc2ccccc2)c(=O)n(C)c1=O	-0.7%	-3%	0%	5
O=C(OCC(=O)N1CCOCC1)c1cccc(F)c1	-1.2%	16%	-55%	·
O=C(CNC(=O)c1ccco1)N/N=C/c1cccs1	-1.2%	1%	-9%	0
O=C(Nc1ccc(Br)cc1)c1cccc(OC(=S)N2CCOCC2)c1	1.0%	-16%	20%	·
COC(CNC(=O)c1ccc2c(c1)nc(C)n2-c1cccc(F)c1)OC	-3.5%	22%	-1%	-2
O=C(O)/C=C/C(=O)NCCC1=CCCCC1	7.7%	-16%	0%	3
CCc1nn(CC(=O)NCCCN(C)C2CCCCC2)c(=O)c2cc3occc3n12	1.0%	6%	0%	·
Cc1ccc(NC(=O)CCC(=O)NNC(=O)c2ccccc2[N+](=O)[O-])c(C)c1	0.4%	-12%	2%	-5
CC(=O)c1c(O)ccc2c(-c3ccccc3)cc(=O)oc12	?	?	-2%	8
COC(=O)Cn1c(=NC(=O)c2sc3ccccc3c2Cl)sc2cc(S(N)(=O)=O)ccc21	-5.7%	18%	-11%	10
CCC(C)c1ccc(NC(=S)N2CCN(c3ccccn3)CC2)cc1 (stereo not drawn)	-0.6%	-1%	2%	·
COc1cccc(C(=O)Nc2nc3ccccc3[nH]2)c1	3.8%	-1%	25%	0
Cc1cccc(CN2CCC(CNC(=O)C3CCCN(S(=O)(=O)c4cnc[nH]4)C3)CC2)c1 (stereo not drawn)	-1.4%	-3%	-2%	2
CCOc1cc2[nH]c(=S)n(CCOC)c(=O)c2cc1OCC	-2.1%	11%	-1%	2
CCN1CCCC1CNC(=O)CSCc1nc(-c2ccccc2C)oc1C (stereo not drawn)	0.7%	0%	-5%	4

Remaining list, next part:
SMILES	Rango complex inh	Rango release inh	miR-21 FLuc	GLA inh pH 4.5
COc1ccccc1NC(=O)CSc1ncn(-c2ccccc2)n1	-2.7%	4%	-15%	-1
COc1ccc(-c2noc(CCC(=O)NC3CCCCC3)n2)cc1OC	3.7%	3%	-10%	3
O=c1cc(Br)c(O)c(Br)cc1Br	-0.6%	-12%	·	·
Nc1ccc(CNc2ncn[nH]2)cc1	3.2%	16%	1%	11
COc1ccc(NC(=S)NC(=NS(=O)(=O)c2ccc(Cl)cc2)c2ccccc2)cc1	2.0%	22%	·	·
COc1ccc(/C=C/C(=O)c2ccc3ccccc3c2O)cc1CN1CCOCC1	?	-3%	2%	-5
CCCOc1ccc(C(=O)OCCN2CCCCC2)c(O)c1	-1.4%	3%	·	·
CCNC(=O)c1cnn(-c2ccccc2)c1-c1ccccc1	1.0%	-10%	-2%	·
O=C1COc2ccc(C(=O)c3ccccc3C(=O)O)cc2N1	1.7%	5%	-7%	6
CCCOc1ccc(-c2nc3c(c(=O)[nH]c(=O)n3Cc3ccccc3)n2CCO)cc1OCC	0.2%	-12%	-9%	·
O=C(O)CN1C(=O)/C(=C\c2cc(Br)ccc2OCc2ccc(Cl)cc2)SC1=S	0.2%	25%	-17%	·
CC(=O)c1ccc(NC(=O)CCc2ccc(C)o2)cc1	0.3%	14%	-19%	·
CCCCc1ccc(NC(=O)CN2C(=O)NC(Cc3ccccc3)C2=O)cc1 (stereo not drawn)	3.5%	10%	·	·
CCOC(=O)C1CCN(C(=O)CSC2=NCCS2)CC1	0.1%	-4%	-11%	12
Cc1ccc(C(=O)N/N=C/c2ccoc2)cc1C	-1.5%	-15%	-32%	·
Cc1cccc(-n2nc3c(c2NC(=O)c2ccco2)CS(=O)(=O)C3)c1C	-1.3%	20%	-1%	4
COc1ccc(OCC(=O)c2c(O)c3ccccc3oc2=O)cc1	0.3%	1%	0%	2
COCOc1ccc(/C=C/C(=O)c2c(OCOC)cc(OCOC)c(CC=C(C)C)c2O)cc1OCOC	0.9%	-6%	·	·
O=C(O)CC(NC(=O)C(c1ccccc1)c1ccccc1)c1ccc(F)cc1 (stereo not drawn)	1.0%	2%	-2%	-4[21.1 µM]
COc1ccc(S(=O)(=O)N2CCCCC2)cc1NS(=O)(=O)c1ccc(CNC(C)=O)cc1	3.8%	-25%	·	·
O=C(Nc1ccc(Cl)c(Cl)c1)C1=Cc2ccccc2OC1	-0.4%	1%	-25%	-5
CC(=O)N1CCCc2cc(S(=O)(=O)N3CCCC(C(=O)NCc4ccc(C)cc4)C3)ccc21 (stereo not drawn)	0.1%	-6%	6%&12%	·
CC(=O)c1ccc(NC(=O)Nc2ccc(Cl)cc2)cc1	7.1%	-4%	-19%	3
Cc1cc(N/N=C/c2ccc(O)cc2O)nc(N2CCOCC2)n1	?	-18%	-22%	-8
CC(=O)N1c2ccc(S(=O)(=O)N3CCC(C(=O)N4CCN(c5ccc(Cl)cc5)CC4)CC3)cc2CC1C (stereo not drawn)	-0.5%	7%	26%	·

The list continues.
SMILES	Rango complex inh	Rango release inh	miR-21 FLuc	GLA inh pH 4.5
CSC[C@H](NC(=O)Cc1c(C)c2cc3c(C)c(C)oc3cc2oc1=O)C(=O)N[C@@H](Cc1ccccc1)C(=O)O	-3.8%	-13%	1%	·
CCSc1nc(=S)n(Cc2ccccc2)c(C)c1C(C)=O	-1.1%	-18%	-6%	3
COc1cc(NC(=O)C2CCC(CNS(=O)(=O)c3csc(C(N)=O)c3)CC2)cc(OC)c1 (stereo not drawn)	0.8%	-15%	-2%	·
O=c1[nH]c(/C=C/c2cccnc2)c([N+](=O)[O-])c(=O)[nH]1	-2.5%	22%	-1%	1
Cc1cc(NC(=O)CSc2nc(-c3ccccc3)cs2)no1	-0.6%	20%	-10%	-3
COc1ccc(C(=O)N(C)Cc2ccc(C)o2)cc1OC1CCN(C(C)=O)CC1	-1.0%	-13%	3%	·
CCN(CC(=O)Nc1c(F)cccc1F)C(=O)CC1CCCCC1	-4.6%	1%	·	·
C1CN(c2nc3nonc3nc2N2CCOCC2)CCO1	·	·	1%	0
COc1ccc(OC(C)C(=O)NCCc2nc3ccccc3[nH]2)cc1 (stereo not drawn)	-1.1%	3%	0%	5
CN(C)c1c2ccccc2nc2c(F)c(F)c(F)c(F)c12	?	?	-22%	?
Cc1cccc(C)c1OC(=O)CN(c1ccc(Cl)cc1)S(C)(=O)=O	-1.8%	-4%	-8%	1
CCOc1ccc(NS(=O)(=O)c2cccc(C(=O)NCC3(N(C)C)CCCCC3)c2)cc1	-2.5%	11%	·	·
COC(=O)c1cc(COC(=O)COc2ccc(C)c(C)c2)oc1C	-1.7%	-1%	1%	·
CCC(CC)C(=O)Nc1c2c(nn1-c1ccc(F)cc1)CS(=O)(=O)C2	?	-1%	-6%	·
O=C(COC(=O)/C=C/c1cccc(Cl)c1)Nc1ccccc1-c1ccccc1	·	·	0%	-3
Cc1cc(C(=O)NNC(=O)c2nn(C)c(=O)c3ccccc23)c(C)o1	-0.9%	7%	-5%	8
COc1ccccc1NC(NC(=O)c1cccnc1)C(Cl)(Cl)Cl (stereo not drawn)	-1.3%	16%	7%	4
